# Biofilm kill mix: clotrimazole potentiators killing C. albicans biofilm, primary screen, 4-compound mixtures; C. albicans biofilm persisters + clotrimazole, fluorescence viability; primary screen in compound mixtures of four per well; inhibition, % at 7.6 µM; 120,000 tested, 0.02% active;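 active = inhibition above 30.3% in the primary screen of four-compound pools, then above 30% when the compound was retested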;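 note: compounds exposed to preformed 24 h biofilms for 48 h; the number belongs to the whole pool; some results filed as inactive read as strong as hits; inactives centre near 12; 0% = biofilm with clotrimazole alone and 100% = kill control; retested singly at about 60 µM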
#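 Test system: C. albicans CAF4-2 wild-type biofilms; buffer or medium: RPMI/MOPS medium, pH 7.0; schedule: 24 h biofilm formation, then 48 h compound exposure, 37 °C; detection: Alamar Blue fluorescence; measure: percent inhibition of biofilm viability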
# * = called active by the depositor.
SMILES,Biofilm kill mix
O=C(O)CCCCCN1C(=O)/C(=C/c2ccncc2)SC1=S,-14
Cc1cnc(NC(=O)c2cc3ccccc3o2)s1,9
O=C1OCCC/C1=C\c1ccc2c(c1)OCO2,19
COc1ccc(CC(=O)NCc2ccc3c(c2)cc(C)n3C)cc1,19
CC(=O)C1=C(O)C(=O)OC1c1ccc(C)cc1 (stereo unspecified),14
COC(=O)c1sccc1NC(=O)COc1ccc(C)cc1,12
Cc1ccc(C(=O)N2CC(C(=O)O)C2)cc1,15
CCOc1cc(CNn2nnnc2N)ccc1OCC(=O)NC(C)(C)C,11
COc1c(Cl)cc(Cl)cc1C(=O)n1nc(C)cc1C,20
O=C(NCc1ccccc1Cl)c1ccccc1CCc1ccccc1,16
Fc1cc(F)cc(NC(=S)N2CCN(c3ncccn3)CC2)c1,13
O=C(CCNC(=O)c1ccccc1Cl)Nc1nc2ccccc2s1,1
Cc1nc(C(F)(F)F)ccc1C(=O)Nc1ccccc1F,13
COc1cc(-c2nnc(SCC(=O)NC3CCS(=O)(=O)C3)o2)cc(OC)c1OC (stereo unspecified),7
O=Cc1ccccc1OCCOc1ccc([N+](=O)[O-])cc1,9
COC(=O)c1c(O)cc(C(C)(C)C)n(-c2ccc(F)cc2)c1=O,12
O=C(c1ccccc1)c1sc(N2CCOCC2)nc1-c1ccccc1,6
Cc1cc(C(=O)OCC(=O)N2c3ccccc3NC(=O)C2(C)C)c(C)n1-c1ccccc1,17
COc1ccccc1N1CCN(C(=O)c2ccc(NS(=O)(=O)c3ccc(C)cc3)cc2)CC1,19
COc1cc2c(cc1OC)C(COc1ccccc1OC)N(C(=O)C(C)C)CC2 (stereo unspecified),15
COc1ccc(-c2nnc(SCC(=O)Nc3ccccc3OC)o2)cc1,9
Cn1cc(S(=O)(=O)c2ccccc2)n(C)c1=O,9
CCN(CC)c1ccc(/C=N\N2CCN(Cc3ccc(C)cc3)CC2)cc1,22
CC12CCC(C(=O)NCc3ccc(F)cc3)(OC1=O)C2(C)C (stereo unspecified),-4
Cc1ccccc1CC1(CO)CCCN(Cc2ccn[nH]2)C1 (stereo unspecified),3

# Some of these compounds in order of molecular weight, low to high.
SMILES,Biofilm kill mix
Cc1ccc(C(=O)N2CC(C(=O)O)C2)cc1,15
CC(=O)C1=C(O)C(=O)OC1c1ccc(C)cc1 (stereo unspecified),14
Cn1cc(S(=O)(=O)c2ccccc2)n(C)c1=O,9
Cc1cnc(NC(=O)c2cc3ccccc3o2)s1,9
O=Cc1ccccc1OCCOc1ccc([N+](=O)[O-])cc1,9
Cc1nc(C(F)(F)F)ccc1C(=O)Nc1ccccc1F,13
COc1c(Cl)cc(Cl)cc1C(=O)n1nc(C)cc1C,20
COC(=O)c1sccc1NC(=O)COc1ccc(C)cc1,12
COC(=O)c1c(O)cc(C(C)(C)C)n(-c2ccc(F)cc2)c1=O,12
COc1ccc(CC(=O)NCc2ccc3c(c2)cc(C)n3C)cc1,19
Fc1cc(F)cc(NC(=S)N2CCN(c3ncccn3)CC2)c1,13
O=C(O)CCCCCN1C(=O)/C(=C/c2ccncc2)SC1=S,-14
O=C(NCc1ccccc1Cl)c1ccccc1CCc1ccccc1,16
O=C(CCNC(=O)c1ccccc1Cl)Nc1nc2ccccc2s1,1
CCOc1cc(CNn2nnnc2N)ccc1OCC(=O)NC(C)(C)C,11
COc1cc2c(cc1OC)C(COc1ccccc1OC)N(C(=O)C(C)C)CC2 (stereo unspecified),15
COc1cc(-c2nnc(SCC(=O)NC3CCS(=O)(=O)C3)o2)cc(OC)c1OC (stereo unspecified),7
COc1ccccc1N1CCN(C(=O)c2ccc(NS(=O)(=O)c3ccc(C)cc3)cc2)CC1,19

# New compounds follow:
SMILES,Biofilm kill mix
O=c1[nH]cnc2sc3c(c12)CCN(Cc1ccccc1)C3,11
Cc1cccc(Cc2cnc(N3C(=N)SC(c4ccccc4)C3=O)s2)c1 (stereo unspecified),0
COc1ccc([N+](=O)[O-])cc1NCc1cccnc1,0
COc1ccccc1/C=C/C(=O)NC(=S)NC(C)C,1
CS(=O)(=O)c1ncc(Cl)c(C(=O)Nc2ccc3ccccc3c2)n1,6
CCn1c(Cc2ccccc2)nnc1SCC(=O)Nc1nc(C)cs1,9
CCOc1ncccc1C(=O)OCC(=O)Nc1ccc2c(c1)OCO2,9
Cc1cc(C)nc(SCc2nnc(SCC(=O)Nc3nc(-c4ccccc4)cs3)n2C)n1,14
O=C(CN1N=C(c2ccccc2)CCC1=O)NCc1cccs1,22
CCCCC(=O)NC(=S)Nc1cc(C(=O)O)ccc1Cl,2
CCN1CCN(CCCNC(=O)c2ccc(/C=C3/Sc4ccccc4N(Cc4ccccc4F)C3=O)cc2)CC1,16
Cc1ccc(CC(=O)N(Cc2ccccc2)c2ccccn2)cc1,3
CC(=O)NC1CCCN(O)C(=O)/C=C(\C)CCOC(=O)C(NC(C)=O)CCCN(O)C(=O)/C=C(\C)CCOC(=O)C(NC(C)=O)CCCN(O)C(=O)/C=C(\C)CCOC1=O (stereo unspecified),16
O=C(NC1CCCCC1)C(c1ccc(F)cc1)N(CCN1CCOCC1)C(=O)c1ccc(-c2ccccc2)[nH]1 (stereo unspecified),3
COc1ccc2nc(-c3ccc(N)cc3)[nH]c2c1,9
CCOC(=O)C(NC(=O)NCc1ccc(F)cc1)(OCC)C(F)(F)F (stereo unspecified),16
COc1ccc(Cl)cc1NC(=O)CCNC(=O)OCc1ccccc1,30
O=[N+]([O-])c1ccc(C2=NN(c3ccccc3)C(c3ccco3)C2)cc1 (stereo unspecified),11
C#CCOCCOCCOCCNc1nc(N2CCN(C(=O)[C@H]([C@@H](C)CC)n3cc([C@@H](N)Cc4ccc(O)cc4)nn3)CC2)nc(N2CCN(C(=O)[C@H](Cc3ccc(O)cc3)n3cc([C@@H](N)CC(C)C)nn3)CC2)n1,10
Cc1ccc(N2C(=O)CC(Cc3cccc(C)c3)C2=O)cc1 (stereo unspecified),21
O=C(O)c1ccccc1SC1CC(=O)N(c2cccc3ccccc23)C1=O (stereo unspecified),4
Cc1ccc(S(=O)(=O)NCCC(c2ccccc2)c2ccccc2)cc1C(=O)O,14
CCOc1cc(C(=O)NC(C)Cc2cccs2)cc(OCC)c1OCC (stereo unspecified),20
C=C(C)C1CC=C(C)/C(=N/NC(=O)COc2ccccc2C)C1 (stereo unspecified),15
OCCNc1nc2ccccc2n1CCN1CCCCC1,6
# (listing goes on)
SMILES,Biofilm kill mix
O=[N+]([O-])c1ccc(C(=S)N2CCCC2)cc1,-24
O=C(NCc1ccccn1)c1cc(Br)ccc1Cl,19
COc1ccc(C2CC(c3ccccc3)=NN2C(=O)COC(=O)c2cccc(S(=O)(=O)N3CCOCC3)c2)cc1 (stereo unspecified),11
COc1cc(-c2cc(=O)c3c(O)cc(O)cc3o2)ccc1O,18
C=CCNC(=S)NC(=O)c1csc([N+](=O)[O-])c1,17
O=C(NCCC1=CCCCC1)C1CCN(S(=O)(=O)c2cccc3nsnc23)CC1,20
O=C(Nc1ccc([N+](=O)[O-])cn1)c1cc(-c2cccc(Cl)c2)nc2ccccc12,5
COc1cc(-c2nc3ccccn3c2/N=C/c2ccc(F)cc2)ccc1O,3
CC(=O)N1CCN(c2c(F)c(F)c(C(F)(F)F)c(F)c2F)CC1,62*
CCOC(=O)N1CCN(C(=O)c2ccccc2NC(=O)c2ccc(Br)cc2)CC1,15
COc1ccc(Br)cc1S(=O)(=O)n1ccnc1,8
COc1ccc(Nc2cc(C(=O)N3CCc4ccccc4C3)c3ccccc3n2)c(OC)c1,0
CN(C)S(=O)(=O)c1cc(NC(=O)CN2CCNC(=O)C2)ccc1Cl,8
COCCn1c(N2CCN(c3ccccc3)CC2)nc2c1c(=O)n(C)c(=O)n2C,52
CCS(=O)(=O)c1ccc(O)c(NC(=O)/C=C/c2ccccc2)c1,2
COc1cc(OC)cc(C(=O)NC(=S)Nc2ccc(NC(=O)c3ccco3)cc2)c1,14
CCSc1nc(-c2cccnc2)ccc1C#N,10
CCCCc1c(O)cc(C)[nH]c1=O,14
CC(=O)Nc1ccc(C(=O)N/N=C/c2cccnc2)cc1,16
CC(C)n1nnnc1SCC(=O)Nc1ccccc1N1CCOCC1,11
Cc1ccc(C(=O)NCCc2sc(C)nc2C)cc1,11
COc1ccc(C2CC(c3ccccc3)=NN2C(=O)COC(=O)c2nc3nccc(C)n3n2)cc1 (stereo unspecified),10
O=C(c1ccccc1F)N1CCN(c2ccc([N+](=O)[O-])c3cccnc23)CC1,8
COc1ccc(/C=N/Nc2nc(-c3ccc(Cl)cc3)cc(C(F)(F)F)n2)c(OC)c1,5
CC(C)(C)c1ccc(-c2ncccc2O)cc1,17
# Next section:
SMILES,Biofilm kill mix
CCOC(=O)c1oc2ccc(S(=O)(=O)n3nc(-c4cc(OC)c(OC)c(OC)c4)cc3N)cc2c1C,16
COc1ccc(/C=N/NC(=O)CN(c2ccc(OC)cc2)S(=O)(=O)c2ccccc2)cc1,4
COc1ccc(-c2cnc3ncnn3c2N)cc1,18
CN(C)c1ccc(C=C2C(=O)OC(C)(C)OC2=O)cc1,22
COc1ccc(C(=O)/C=C/C(=O)N(CC(=O)NC2CCCCC2)Cc2ccccc2)c(O)c1,3
Cc1ccc(C(=O)NCCc2ccccn2)cc1S(=O)(=O)N1CCOCC1,24
CCOC(=O)C1=NN(C(C)=O)C2(CC(=O)N(c3cccc(C)c3)C2=O)C1 (stereo unspecified),0
C=CCc1c(C)nc(-c2ccccc2)nc1N/N=C/c1ccccc1,8
COc1cc([N+](=O)[O-])ccc1NC(=O)CSc1ccccn1,14
CCOC(=O)N1CCC(N(CCN(C)C)C(=S)Nc2cccc(OC)c2)CC1,18
Cc1c(C(=O)N2CCOCC2)cc(C(C)(C)C)n1-c1ccccc1,18
O=C(NCCCN1CCOCC1)C(=O)NCCc1ccccc1,15
CCN(CCNCC(O)COCc1ccc(Cl)cc1)c1cccc(C)c1 (stereo unspecified),17
O=[N+]([O-])c1nn(-c2cccc(Cl)c2)n(O)c1=NCc1cccnc1,14
CCn1c(-c2cc(-c3ccccc3OC)nc3ccccc23)n[nH]c1=S,10
C=CCc1c(C)nc(N)[nH]c1=O,12
Cc1ncsc1CCOC(=O)c1ccc(N2CCOCC2)c([N+](=O)[O-])c1,0
O=C(O)CCC(=O)NNC(=O)COc1ccc2ccccc2c1Br,9
O=C(Cn1cnc2ccccc21)N/N=C/c1ccccc1[N+](=O)[O-],2
CCN1CCCCC(=N/O)/C(=N/O)CCCC1,36
CCOC(=O)NC(=O)/C(C#N)=C\Nc1sccc1C(=O)OC,19
C/C(CCc1ccco1)=N/NC(=O)CCC(=O)Nc1ccc(Br)cc1,10
COc1cc(/C=C2\CCc3ccccc3C2=O)cc(OC)c1OC,11
O=C(O)c1cc(-n2cccc2)ccc1N1CCOCC1,-2
O=C(Nc1cccc2ccccc12)OCc1cncs1,9
# Additional structures follow:
SMILES,Biofilm kill mix
CCC/C(O)=C1\C(=O)CCCC1=NCCc1c(C)[nH]c2ccccc12,21
O=C(OCC(=O)N1CCCc2ccccc21)c1cncc(Br)c1,18
CCCn1c(=N)c(C(=O)NC2CCCC2)cc2c(=O)n3cccc(C)c3nc21,3
CN(C)CCN=Cc1c(O)n(Cc2ccccc2)c(=O)c2ccccc12,11
O=C(CN1C(=O)NC(c2ccccc2)(c2ccccc2)C1=O)c1c[nH]c2ccccc12,11
Cc1ccc(COC(=O)c2nn(-c3ccccc3)nc2N)cc1,18
CCOC(=O)CNC(=S)N(Cc1cccs1)C1CCCCC1,6
Cc1c(C(=O)Oc2ccc(F)cc2)sc2ncn(Cc3cccc(F)c3)c(=O)c12,11
Cc1ccccc1C=Nc1ccccc1C(N)=O,4
NNc1nc(-c2ccccc2)c2ccccc2n1,2
COc1cccc(/C=C/C(=O)OCC(=O)Nc2ccc(Cl)c(S(=O)(=O)N(C)C)c2)c1,12
O=C(Cn1nc(-c2cccc(Cl)c2)ccc1=O)Nc1ccc(C(=O)NC2CC2)cc1,22
Cc1c(/C=N/NC(=O)c2ccc(O)cc2)c2ccccn2c1C(=O)c1ccc(F)cc1,-4
CC(C)OC(=O)/C(C#N)=C\c1cccnc1,24
CC1Oc2ccccc2OC1(O)c1ccccn1 (stereo unspecified),11
COc1ccc(NC(=O)c2cncc(Br)c2)cc1S(N)(=O)=O,5
Cc1ccc(C2CC(c3ccc(NS(C)(=O)=O)cc3)=NN2C(=O)c2ccco2)cc1 (stereo unspecified),7
Cn1nnc(NC(=O)/C=C/c2ccco2)n1,15
O=C1CC(SC(=Nc2ccccc2)Nc2ccccc2)C(=O)N1c1ccc(Cl)c(Cl)c1 (stereo unspecified),17
CCOc1ccc(N2C(=O)CC(NCC3CCCO3)C2=O)cc1 (stereo unspecified),12
CCC(C)C(NC(=O)C(C)NC(=O)CNC(=O)CNC(=O)OCc1ccccc1)C(=O)OC (stereo unspecified),16
COc1ccc(OCC(=O)NNC(=O)c2nn(C)c(=O)c3ccccc23)cc1,6
Cc1cc(C(=O)OCC(=O)NCc2cccs2)c2ccccc2n1,4
Cc1ccc(S(=O)(=O)NCC2CCCO2)cc1[N+](=O)[O-] (stereo unspecified),19
Cc1cc(C)n(-c2ccc(Cl)c(Cl)c2)n1,8
# Additional records
SMILES,Biofilm kill mix
CN(CCC#N)C(=O)COC(=O)c1ccc2[nH]c3c(c2c1)CCCC3,11
CCOc1ccc(CC(C(N)=O)C(N)=O)cc1,14
CCC1(CC)NC(=O)N(CC(=O)OCC(=O)Nc2sccc2C#N)C1=O,10
Cc1cnc(C(=O)NCc2ccc(Cl)cc2Cl)cn1,10
O=C(NCc1ccco1)c1sc2cc(F)ccc2c1Cl,11
CC(=O)Nc1ccc(C2=NNC(=NCC3CCCO3)SC2)cc1 (stereo unspecified),19
CCOc1ccc(N(Cc2ccc(OC)cc2)C(=O)c2ccco2)cc1,16
CC(=O)N(CCC1(C(C)C)CCOC(C)(C)C1)C(C)c1cccs1 (stereo unspecified),26
N#C/C(=C\c1cccc([N+](=O)[O-])c1)C(=O)NCc1cccnc1,18

# Not all compounds are listed; count on the stated rates, not on these rows.
